# Source: PubChem BioAssay
# Mtb MbtI inh = blocks the Mycobacterium tuberculosis siderophore enzyme MbtI; P9WFX0; purified MbtI enzyme, fluorescence intensity read-out; inhibition, %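 (about 17 µg/mL by stock and volumes)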; actives 0.89% (n = 100,000);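 active = above 50% in both replicates, above 80% if mildly self-fluorescent; inactive = the rest, strongly fluorescent compounds included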;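 also: 0% = mean of negative and 100% = mean of positive controls; one replicate is shown; some compounds called inactive have numbers as strong as hits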
# Target sequence (P9WFX0 whole entry, looked up): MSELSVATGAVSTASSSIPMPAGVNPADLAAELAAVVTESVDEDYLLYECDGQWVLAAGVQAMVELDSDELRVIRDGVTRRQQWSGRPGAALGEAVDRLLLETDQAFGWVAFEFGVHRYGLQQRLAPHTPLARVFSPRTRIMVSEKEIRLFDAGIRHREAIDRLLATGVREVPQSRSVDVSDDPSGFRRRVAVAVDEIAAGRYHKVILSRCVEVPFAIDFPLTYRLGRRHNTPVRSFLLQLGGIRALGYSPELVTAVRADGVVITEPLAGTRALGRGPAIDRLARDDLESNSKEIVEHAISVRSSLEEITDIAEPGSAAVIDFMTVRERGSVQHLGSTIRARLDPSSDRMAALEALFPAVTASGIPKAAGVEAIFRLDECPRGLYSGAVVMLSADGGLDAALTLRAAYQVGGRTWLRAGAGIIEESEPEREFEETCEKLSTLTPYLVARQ
# Mtb MenB inh = Mtb MenB enzyme inhibition; actives 0.43% (n = 100,000); AID 540299; inhibition, %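 (about 12 µg/mL by stock and volumes)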; MenB enzyme assay, absorbance read-out; some hits fall short of the stated cut;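 active = mean of two replicates above 30%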;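 also: 0% = no compound and 100% = wells with inactive enzyme; the first replicate is given; strong numbers were not always called active; inactives centre near -10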
# Target sequence (P9WNP5 whole entry, looked up): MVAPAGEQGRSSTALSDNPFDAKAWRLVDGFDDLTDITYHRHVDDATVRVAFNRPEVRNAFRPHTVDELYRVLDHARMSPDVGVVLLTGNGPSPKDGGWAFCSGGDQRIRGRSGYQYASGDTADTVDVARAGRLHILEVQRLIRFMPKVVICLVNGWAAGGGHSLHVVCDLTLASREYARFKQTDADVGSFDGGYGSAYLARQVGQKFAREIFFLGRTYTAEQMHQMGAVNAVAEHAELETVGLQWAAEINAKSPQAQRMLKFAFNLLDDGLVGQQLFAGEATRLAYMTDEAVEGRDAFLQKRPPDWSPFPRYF
# Polio RdRp inh = inhibitors of poliovirus RNA polymerase binding and polymerization. % elongation, % (compound at 16.7 µg/mL). poliovirus polymerase elongation, fluorescence polarization; stronger effect = lower value. actives 0.66% (n = 150,000); in the data active = % elongation below about 90%; also: some results filed as inactive read as strong as hits
# Polio RdRp inh intensity = also measured in Polio RdRp inh; calls as there; % elongation; measured here: total intensity read-out; formula for this scale not given here;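 total fluorescence in place of polarization; lower means less elongation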
# Numbers without * were called inactive; x = not tested or not shown.
SMILES	Mtb MenB inh	Polio RdRp inh intensity	Mtb MbtI inh	Polio RdRp inh
O=C(/C=C/c1ccccc1)NC1CC1	-11	110	x	105
Cc1ccc(C2=NN(C(=O)CSc3ccc4c(c3)OCCO4)C(c3ccco3)C2)cc1 (stereo not given)	-41	99	-4	106
Cc1ccc(C)c(N2C(=O)N(Cc3ccccc3Cl)C3CS(=O)(=O)CC32)c1 (stereo not given)	3	102	-24	101
Cn1cnc(S(=O)(=O)Nc2ccccc2N2CCOCC2)c1	23	95	-7	104
Cc1ccc2c(CN3CCN(S(=O)(=O)c4ccccc4)CC3)cc(=O)oc2c1C	-1	94	-24	98
CCOC(=O)c1cc2occc2n1CC(=O)N(C(C)C)C(C)C	25	102	-2	103
CC1(C)N=C(c2cccnc2)N(O)C1(O)c1ccccc1 (stereo not given)	-11	103	-1	98
CC(C)(C)c1cc(NC(=O)COc2ccc(Cl)cc2Cl)on1	-11	108	-7	104
Cc1ccc(N=c2scc(-c3cccs3)n2CCCN2CCOCC2)cc1	9	96	9	99
CCOC(=O)N1CCN(C(=O)COc2ccccc2)CC1	x	96	-4	102
Cc1nn(CC(=O)NCCSCc2ccco2)c(C)c1Br	10	99	4	100
CCOC(=O)N1CCN(C(=O)COC(=O)C2=C(Nc3ccccc3)OCC2=O)CC1	-18	98	6	102
COc1cccc(OC)c1OC(=O)c1cc(C)ccc1C	-5	104	-5	100
CC(C)N(CC(N)=O)C(=O)/C=C/c1ccc(Cl)c(Cl)c1	-27	97	-4	103
COc1cc2c(cc1OC)CN(S(=O)(=O)c1c(C)nn(C)c1C)CC2	-4	106	-3	97
O=S(=O)(NC1CC1)c1ccc(S(=O)(=O)N2CCCc3ccccc32)cc1	-62	101	-5	104
CC(=N/O)/C(=N\O)c1ccc(C)o1	-29	104	5	104
CC1=CCC2CC1C(c1ccccc1)OC2(C)C (stereo not given)	-17	107	8	102
O=C(O)c1ccccc1SC1CC(=O)N(Cc2ccccc2)C1=O (stereo not given)	10	102	9	103
O=C(c1ccc(N2CCCC2)c(NC(=S)NC2CCCC2)c1)N1CCCC1	-15	99	1	104
C/C(=N\N1C(=O)c2ccccc2NC1c1ccccc1)c1ccccc1O (stereo not given)	-25	101	-9	101
CCCNC(=O)COc1ncnc2ccccc12	-6	101	-1	101
COC(=O)c1ccccc1N(C)C(=O)c1cc(OC)c(OC)c(OC)c1	-7	100	-1	105
O=C(O)CC1(CC(=O)NCc2cccnc2)CCCCC1	17	95	-2	101
CCOC(=O)c1c(C)nc(-c2ccccc2)nc1NC(=O)CC	21	104	-3	98
CC(=O)Nc1ccccc1C(=O)NCc1ccco1	10	103	5	100
CC1=C(C(=O)Nc2ccccc2)C(c2ccc3c(c2)OCO3)C2=C(CC(C)(C)CC2=O)N1 (stereo not given)	-9	103	x	106
CNC(=O)NC(=O)C(c1ccccc1)N1CCCC(c2nnc3ccc(C(F)(F)F)cn23)C1 (stereo not given)	-11	107	5	104
c1ccc(OCCCn2nnc(-c3ccncc3)n2)cc1	-30	101	-4	103
CCc1ccc(CNC)cc1	-12	104	7	101
Cc1cccc(CN2C(=O)C(O)(CC(=O)c3ccco3)c3ccccc32)c1 (stereo not given)	-11	103	13	101
CC1CCC(C(=O)NC(C(=O)N2CCC3(CC2)OCCO3)C(C)C)CC1 (stereo not given)	-3	100	2	103
CCn1c(-c2ccco2)nn(CN(C)Cc2cccc(Cl)c2)c1=S	11	104	34	105
CC(O)Cn1c(Br)nc2c1c(=O)n(C)c(=O)n2C (stereo not given)	9	102	7	100
O=c1[nH]ccn(-c2ccccc2)c1=O	-51	106	1	103
O=c1c(-c2ccc(Cl)cc2Cl)c(C(F)(F)F)oc2cc(O)ccc12	-12	109	-9	104
Cc1ccc(C)n1-c1ccc(C(=O)O)cc1O	-2	91	41	91
COc1ccc(-n2nnc3c(SCC(=O)NC4CCCCC4)ncnc32)cc1	-11	101	3	99
Cc1ccc(S(=O)(=O)N2CCCCC2C(=O)O)cc1 (stereo not given)	-5	102	-11	102
CO/N=C1\CCCc2c(C(=O)NN)sc(SC)c21	-4	104	16	103
CC(Sc1cccc[n+]1[O-])C(=O)Nc1cc(C(F)(F)F)ccc1Cl (stereo not given)	x	106	-5	102
CN1C(=S)N(C2CCCCC2)C(=O)/C1=C/c1ccccc1O	-74	107	-4	102
COc1c(C(=O)NC(=S)NCc2ccco2)cc2ccccc2c1Br	-34	101	-4	100
Cc1ccc2nc(COC(=O)/C=C/c3c(C)nn(C4CCS(=O)(=O)C4)c3Cl)cc(=O)n2c1 (stereo not given)	-11	99	38	97
CCOc1ccc(C=C2C(=O)OC(c3ccccc3)OC2=O)cc1 (stereo not given)	0	101	6	101
CCOC(=O)c1cnn(-c2ncnc3c2cnn3C)c1C(F)(F)F	-14	105	-36	104
CN=C(Nc1ccnn1C1CCCCC1)c1ccccc1	1	100	-4	102
O=C(O)C1CCN(c2nccs2)CC1	3	106	-3	96
O=C(NCC1CCCO1)c1ccc(NC(=O)c2ncn[nH]2)cc1 (stereo not given)	-21	101	3	104
Cc1ccc(CN(C)C(=O)C2CCCCC2)o1	-25	111	-4	110
CCC(C)c1ccc(NC(=O)COC(=O)c2cccc(F)c2)cc1 (stereo not given)	x	106	-12	102
CCOC(=O)c1oc2ccc(Br)cc2c1CSc1nnc(C(C)(C)C)n1N	6	100	2	101
CNC(=O)CCC(=O)N1CC(C)Oc2ccccc21 (stereo not given)	-2	104	-9	103
NNC(=O)CNS(=O)(=O)c1ccccc1	-4	101	-16	103
CC1=CC(C)C(C2OC(C)CC(C)(C)O2)C(C)C1 (stereo not given)	9	103	-6	101
CCCCn1nc(NC(=O)C(C)C)c2cc3cc(OC)ccc3nc21	-15	103	-13	102
N#C/C(=C\NCc1cc(C(F)(F)F)cc(C(F)(F)F)c1)S(=O)(=O)Cc1ccco1	-2	101	7	100
Cc1nn(-c2ccccc2Cl)c(Cl)c1C=Nc1cc(Cl)ccc1C#N	-39	106	-14	105
CCOC(=O)C1=C(N)Oc2c(oc(CO)cc2=O)C12C(=O)N(CC(N)=O)c1ccccc12 (stereo not given)	9	100	-2	97
Fc1ccc(CN2CCCN(c3ccc4c(c3)OCCO4)CC2)cc1	22	107	6	99

# Later entries:
SMILES	Mtb MenB inh	Polio RdRp inh intensity	Mtb MbtI inh	Polio RdRp inh
Cc1cc(Nc2ccccc2)n2cnnc2n1	4	97	10	104
CCOC(=O)CSC1=N/C(=C/c2ccsc2)C(=O)N1c1ccccc1	-27	101	-46	101
Cc1ccccc1N1CCN(Cc2ccc(O)cc2)CC1	-1	102	-9	100
COc1ccc(OCc2nnc(SCc3cc(=O)n4ccsc4n3)n2Cc2ccco2)cc1	12	104	43	98
CC(C)NC(=O)c1ccc(Cl)c(S(=O)(=O)Nc2ccc(Cl)cc2)c1	x	100	-9	99
COc1ccc(/C=C2\SC(=S)N(CCC(=O)NCCO)C2=O)cc1	-244	98	14	105
O=C(NCCN1CCCC1)c1ccc2c(c1)OCCO2	-14	104	1	103
O=C1COc2ccc(C(=O)CSc3nc4cc(Cl)ccc4c(=O)n3C3CCCC3)cc2N1	3	111	-3	106
NC(=O)CSC1=N/C(=C\c2ccco2)C(=O)N1c1ccc(OC(F)F)cc1	-186	119	-8	116
O=C1CCCN1c1ccc(S(=O)(=O)NCCc2ccccc2)cc1	-21	102	-26	101
O=C(CNc1ccc2c(c1)oc1ccccc12)c1ccc2c(c1)OCO2	-28	102	-74	103
NC(=O)CC(c1ccccc1)c1ccc2c(c1)OCO2 (stereo not given)	12	101	-4	100
CC(C)(C)NC(=O)c1ccc2c(c1)C(=O)N(C1CCCCC1)C2=O	-5	102	-7	100
Brc1cccc(OCCOc2cccc(-n3cnnn3)c2)c1	-13	104	-5	99
COc1ccccc1C(=O)Oc1ccc2ccc(=O)oc2c1	5	97	16	102
Cc1ccc2[nH]c3c(=O)n(CC(=O)N(CC(C)C)CC(C)C)ncc3c2c1	0	104	31	102
O=C1Nc2ccccc2C12NNc1ccccc1O2 (stereo not given)	-148	105	-4	102
O=C(Cn1cnc(SCc2ccccc2)n1)Nc1cccc(C(F)(F)F)c1	-5	100	-4	99
O=C1CCCC2=C1C(c1ccc(O)c(O)c1)c1c(ccc3ncccc13)N2 (stereo not given)	-114	59	91	91
COc1ccccc1-n1c(=O)c(C#N)cc2c(=O)n3ccccc3nc21	-251	119	4	92
O=C(C[n+]1ccccc1)Nc1ccc(C(=O)O)cc1	-17	109	3	104
COc1cc(/C=C2\SC(=S)N(C(C(=O)O)C(C)C)C2=O)cc(OC)c1O (stereo not given)	-290	130	-10	119
CC(C)(C)c1nc(=S)[nH][nH]1	2	99	59*	105
COc1cc(C)c(CN)cc1C(C)C	-24	103	6	103
CCCc1nc2c(C)cc(-c3nc4ccccc4n3C)cc2n1Cc1ccc(-c2ccccc2C(=O)O)cc1	-7	104	-140	105
CCOc1ccccc1NC1=NCCS1	x	102	1	101
C=CCN(CC=C)C(=O)C1CCN(Cc2cccc(Cl)c2)CC1	11	98	x	97
Nc1nc(Nc2cccc3ccccc23)nc(C2CCCC2=O)n1 (stereo not given)	3	101	14	102
C=CCSc1nc(C)cc(=O)[nH]1	-11	107	12	106
C=CCn1c(SC)nc2c1c(=O)[nH]c(=O)n2C	-28	97	96*	99
CCC(C)C(N)C1=NC(C(=O)N[C@@H](CC(C)C)C(=O)N[C@H](CCC(=O)O)C(=O)N[C@H](C(=O)N[C@H]2CCCCNC(=O)[C@H](CC(N)=O)NC(=O)[C@@H](CC(=O)O)NC(=O)[C@H](Cc3cnc[nH]3)NC(=O)[C@@H](Cc3ccccc3)NC(=O)[C@H]([C@@H](C)CC)NC(=O)[C@@H](CCCN)NC2=O)[C@@H](C)CC)CS1 (stereo not given in full)	-8	86	-16	97
CCS(=O)(=O)N(CC(=O)O)c1ccc(OC)cc1	-19	108	x	106
CC(C)(C)NC(=O)N1CCc2ccccc2C1	-30	104	-5	101
CC1CN(c2nc(-c3ccc(F)cc3)cs2)CC(C)O1 (stereo not given)	8	101	-6	99
COc1cc2c(cc1OC)C(c1cccs1)NCC2 (stereo not given)	-16	104	2	103
COc1cc(N/C(N)=N/c2nc(CSc3ccc(C)cc3)cc(=O)[nH]2)cc(OC)c1	-21	101	4	104
COC(=O)c1cc2sccc2n1Cc1cc(=O)n2ccccc2n1	7	96	-9	102

# Compounds listed so far that have a furan ring, fused or not:
SMILES	Mtb MenB inh	Polio RdRp inh intensity	Mtb MbtI inh	Polio RdRp inh
Cc1ccc(C2=NN(C(=O)CSc3ccc4c(c3)OCCO4)C(c3ccco3)C2)cc1 (stereo not given)	-41	99	-4	106
CCOC(=O)c1cc2occc2n1CC(=O)N(C(C)C)C(C)C	25	102	-2	103
Cc1nn(CC(=O)NCCSCc2ccco2)c(C)c1Br	10	99	4	100
CC(=N/O)/C(=N\O)c1ccc(C)o1	-29	104	5	104
CC(=O)Nc1ccccc1C(=O)NCc1ccco1	10	103	5	100
Cc1cccc(CN2C(=O)C(O)(CC(=O)c3ccco3)c3ccccc32)c1 (stereo not given)	-11	103	13	101
CCn1c(-c2ccco2)nn(CN(C)Cc2cccc(Cl)c2)c1=S	11	104	34	105
COc1c(C(=O)NC(=S)NCc2ccco2)cc2ccccc2c1Br	-34	101	-4	100
Cc1ccc(CN(C)C(=O)C2CCCCC2)o1	-25	111	-4	110
CCOC(=O)c1oc2ccc(Br)cc2c1CSc1nnc(C(C)(C)C)n1N	6	100	2	101
N#C/C(=C\NCc1cc(C(F)(F)F)cc(C(F)(F)F)c1)S(=O)(=O)Cc1ccco1	-2	101	7	100
COc1ccc(OCc2nnc(SCc3cc(=O)n4ccsc4n3)n2Cc2ccco2)cc1	12	104	43	98
NC(=O)CSC1=N/C(=C\c2ccco2)C(=O)N1c1ccc(OC(F)F)cc1	-186	119	-8	116
O=C(CNc1ccc2c(c1)oc1ccccc12)c1ccc2c(c1)OCO2	-28	102	-74	103

# Compound profiles (already shown). Values in the order: Mtb MenB inh	Polio RdRp inh intensity	Mtb MbtI inh	Polio RdRp inh
# Record of `COc1cc(N/C(N)=N/c2nc(CSc3ccc(C)cc3)cc(=O)[nH]2)cc(OC)c1` = -21	101	4	104
# Record of `CCC(C)C(N)C1=NC(C(=O)N[C@@H](CC(C)C)C(=O)N[C@H](CCC(=O)O)C(=O)N[C@H](C(=O)N[C@H]2CCCCNC(=O)[C@H](CC(N)=O)NC(=O)[C@@H](CC(=O)O)NC(=O)[C@H](Cc3cnc[nH]3)NC(=O)[C@@H](Cc3ccccc3)NC(=O)[C@H]([C@@H](C)CC)NC(=O)[C@@H](CCCN)NC2=O)[C@@H](C)CC)CS1` (stereo not given in full) = -8	86	-16	97
